# Screening results from PubChem BioAssay.
# ClpP mod = qHTS Assay for Activators of ClpP. 340,000 compounds, 1.9% hits. Potency, µM (titrated, usually from 57.5 µM), inactives show top-dose activity change, negative = active. ATP-dependent Clp protease proteolytic subunit (Bacillus subtilis (strain 168)), P80244. purified B. subtilis ClpP, FRET peptide cleavage, 20 min; active = well fitted falling curve with a large enough effect; inconclusive = small, poorly fitted or top-dose-only effect; inactive = no such curve, though single readings can be large or run the other way; note: potency is the fitted concentration of half-maximal effect; the source files actives as falling curves though it sought activators and does not explain the sign; nearly all actives have a fitted effect of over 65% in size; many hits overshoot -100%
# Target sequence (P80244 whole entry, looked up): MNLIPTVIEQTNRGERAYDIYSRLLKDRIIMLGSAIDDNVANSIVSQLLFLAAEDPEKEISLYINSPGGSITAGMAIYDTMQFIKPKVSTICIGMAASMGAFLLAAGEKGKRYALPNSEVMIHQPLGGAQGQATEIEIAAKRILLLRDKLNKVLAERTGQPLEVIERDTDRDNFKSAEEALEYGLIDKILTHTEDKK
#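 FRET quenching reversal measured ClpP activation: 10 microg/mL B. subtilis ClpP at pH 8 with the FRET-FV decapeptide, read at 430 nm after 320 nm excitation. The 20-min minus 0-min signal was scaled between DMSO/no-enzyme wells and ADEP (5.8 microM final).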
# Sfp PPTase inh = qHTS Assay for Inhibitors of Bacillus subtilis Sfp phosphopantetheinyl transferase (PPTase); Biochemical Sfp PPTase activity, qHTS; 310,000 compounds, 3.5% hits; 4'-phosphopantetheinyl transferase ffp (Bacillus subtilis), Q9F4F7; Potency, µM, for inactives: max response, negative = inhibition, most hits filed as inhibitors; active = well fitted inhibition curve with a large enough effect; inconclusive = small, poorly fitted or top-dose-only effect, or another doubt; inactive = no such curve, though single readings can be large or run the other way;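 note: the enzyme is Sfp with the accession as filed and its product quenches rhodamine fluorescence; potency is the fitted concentration of half-maximal effect; 0% = enzyme reaction without inhibitor and -100% = no enzyme wells; top concentration of the series not given in the record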
#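 Step 1, compound plus 15 nM Sfp-PPTase, 15 min, room temperature. Step 2, add rhodamine-CoA (5 uM) and BHQ-2-YbbR (12.5 uM). Step 3, read 525/598 nm fluorescence at 0 and 30 min.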
# gsp antagonist = qHTS for Antagonists of gsp, the Etiologic Mutation Responsible for Fibrous Dysplasia/McCune-Albright Syndrome: qHTS. gsp-mutant cells, cAMP HTRF, 30 min; control for the full effect not named in the record. Potency, µM (series often up to 76.9 µM), for the others: at the highest dose activity change, negative = inhibition, usual class: inhibitors. 340,000 compounds, 0.4% hits; active = falling curve of any shape with a large fitted effect; inconclusive = falling curve, mostly with a smaller effect; inactive = flat or rising curve; cell line not stated here;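 note: intracellular cAMP measured with PDE inhibitor Ro 20-1724 present during compound exposure; potency is the fitted concentration of half-maximal effect; % is set by controls: 0 for no effect and ±100 for the full control effect; nearly all actives have a fitted effect of over 65% in size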
#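 HTRF cAMP measurement after 30 min RT detection following 30 min, 37C compound treatment alongside […] (added as 300 uM solution) in G418-selected cells seeded at 2000/well and grown 16–24 h.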
# Menin MLL FP FL = qHTS Assay for Inhibitors Targeting the Menin-MLL Interaction in MLL Related Leukemias: Competition With Fluorescein Labeled MLL-derived Peptide | Fluorescence polarization, fluorescein-MLL peptide displacement from menin | FP activity change, % at 61.4 µM | 290,000 tested, under 10 active; inconclusive = falling polarisation curve, or a change in total fluorescence; inactive = total fluorescence flat and polarisation flat or rising; no compound was filed as active; the % refers to the polarisation; negative = inhibition;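 note: % of control where 0% means no effect; inhibitors lower the polarisation; unlabelled MLL peptide was the positive control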
# gsp agonist = qHTS for Agonist of gsp, the Etiologic Mutation Responsible for Fibrous Dysplasia/McCune-Albright Syndrome: qHTS; gsp mutant cells, cAMP HTRF, 30 min; control for the full effect not named in the record; Potency, µM (top dose mostly 76.9 µM), for inactives: top-dose activation (cAMP increase), usual class: activators; 340,000 compounds, 0.13% hits; active = well fitted activation curve with a large enough effect; inconclusive = small, poorly fitted or top-dose-only effect, or another doubt; inactive = no such curve, though single readings can be large or run the other way; cell line not stated here;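 note: phosphodiesterase inhibitor Ro 20-1724 added with compounds to block cAMP breakdown; potency is the fitted concentration of half-maximal effect; nearly all actives have a fitted effect of over 60% in size; about a fifth of the inactives were tested at one dose only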
#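 Cells in DMEM/10% FBS with G418 were pretreated with compounds in DMSO plus […] (300 uM stock) for 30 min at 37C. cAMP was measured by HTRF (cAMP-d2 plus anti-cAMP antibody-K) after 30 min at room temperature.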
# D2 PAM = Beta-Arrestin HTS for Positive Allosteric Modulators of the Human D2 Dopamine Receptor: Potentiators. D(2) dopamine receptor (Homo sapiens), P14416. DiscoveRx D2 beta-arrestin cells, luminescence, 90 min; 100% = 57 uM dopamine signal. potentiation, % (no concentration beside the values). 360,000 compounds, 0.23% hits; active = potentiation of 50% or more; inconclusive = 30% to 50%; inactive = 30% or less;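 note: compound concentration not given in the record; tested on top of an EC20 dose of dopamine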
#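 PathHunter D2 cells, attached overnight at 37 deg C, received compound in DMSO plus dopamine at EC20 (50 nM final) for 90 min at 37 deg C. Beta-arrestin recruitment was read as luminescence after 1 h with detection reagent at ambient temperature.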
# TRPV1 PAM = HTS Assay for Compounds that Act as Potentiators of the Vanilloid Receptor 1; TRPV1-expressing cells, Fluo-8 calcium influx, capsaicin EC20 potentiation; host cell line not named in the record; control for the full effect not named in the record; AID 540277, 2011; potentiation, % at 8.33 µM; 320,000 compounds, 0.02% hits; active means potentiation above 80%; inconclusive means 30% to 80%; inactive means below 30%; note: 0% is about no effect
# Target sequence (Q8NER1 whole entry, looked up): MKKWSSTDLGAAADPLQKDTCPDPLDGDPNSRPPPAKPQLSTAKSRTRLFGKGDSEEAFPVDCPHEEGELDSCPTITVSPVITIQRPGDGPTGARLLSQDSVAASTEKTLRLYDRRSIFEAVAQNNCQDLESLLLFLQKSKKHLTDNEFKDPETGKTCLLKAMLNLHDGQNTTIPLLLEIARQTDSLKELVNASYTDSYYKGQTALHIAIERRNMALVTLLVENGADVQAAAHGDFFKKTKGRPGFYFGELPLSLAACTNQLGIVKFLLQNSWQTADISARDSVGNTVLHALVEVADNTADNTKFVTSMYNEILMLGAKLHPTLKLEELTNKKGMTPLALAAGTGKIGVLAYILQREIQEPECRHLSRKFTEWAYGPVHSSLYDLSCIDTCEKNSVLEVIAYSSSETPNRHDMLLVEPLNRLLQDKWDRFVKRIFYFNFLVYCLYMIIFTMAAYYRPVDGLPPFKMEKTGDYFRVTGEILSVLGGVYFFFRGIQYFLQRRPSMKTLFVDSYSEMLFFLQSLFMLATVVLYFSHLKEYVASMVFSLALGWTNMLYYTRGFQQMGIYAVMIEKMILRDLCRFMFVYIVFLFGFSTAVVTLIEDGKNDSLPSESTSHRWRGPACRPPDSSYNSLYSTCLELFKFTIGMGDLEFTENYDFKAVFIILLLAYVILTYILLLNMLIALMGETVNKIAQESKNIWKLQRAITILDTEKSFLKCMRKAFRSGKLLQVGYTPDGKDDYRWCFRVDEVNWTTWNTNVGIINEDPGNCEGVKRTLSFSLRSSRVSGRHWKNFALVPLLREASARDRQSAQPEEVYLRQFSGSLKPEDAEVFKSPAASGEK
#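 Cells expressing TRPV1 were dye-loaded with Fluo-8 and read kinetically: 10 s baseline, 3 min after compound (agonist portion), then 2 min after EC20 capsaicin (allosteric enhancer portion). Calcium-bound dye fluorescence at 480/520 nm.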
# * hit, by the source's call; ? = inconclusive; . = no result given; & = joins results of further samples; [ ] = remark or other dose.
SMILES,ClpP mod,Sfp PPTase inh,gsp antagonist,Menin MLL FP FL,gsp agonist,D2 PAM,TRPV1 PAM
Cn1c(=O)c2c(-c3ccccc3)n(-n3cnnc3)cc2n(C)c1=O,-0.1%,8%,1%,0.6,?,-11,5
N#Cc1c(NC(=O)c2ccco2)sc2c1CCC2,-2.0%,-4%,-13%,.,13%,-31,-19
Cc1cc(C)c(S(=O)(=O)N2CCOC2CNC(=O)C(=O)NCc2ccccn2)c(C)c1 (stereo not given),-2.7%,-4%,7%,-2.1,-29%,-2,-2
CC1(C(=O)NCc2cc(F)cc(C(F)(F)F)c2)C=CC2(CCCCC2)N1C(=O)c1ccccc1 (stereo not given),2.1%,7%&24%,2%,2.1&-3.7,.,4,5
COC(=O)c1cccc(NC(=O)CC2NCCNC2=O)c1 (stereo not given),0.2%,20%,7%,2.0,-10%,-16,-6
CCCS(=O)(=O)c1nc(S(=O)(=O)c2ccc(C)cc2)c(N2CCCC2)s1,-5.4%,6%,-4%,-2.6,?,-3,-12
COc1cc2ncnc(NCc3ccc4c(c3)OCO4)c2cc1OC,-0.9%,2%,2%,-1.6,-70%[inhibitor],-11,-10
N#Cc1ccccc1NC(=O)CNc1ccccc1N1CCCCC1,0.1%,0%,-17%,-0.7,?,-5,-28
O=C(Nc1cc(C(F)(F)F)ccc1N1CCCC1)C1CC(=O)N(Cc2ccccc2)C1 (stereo not given),-2.2%,.,.,.,-22%,-11,.
Cc1cc(Cl)c(S(=O)(=O)Nc2ccon2)cc1OCC(=O)NC1CCCCC1,0.9%,6%,?,-7.8,-60%[inhibitor],2,7
COc1ccc(N2CCN(CCCNC(=O)C3CCCN(S(=O)(=O)c4cnc[nH]4)C3)CC2)cc1 (stereo not given),-8.8%,3%,-4%,8.8,-2%,-10,7
C[C@H](CO)N1C[C@H](C)[C@@H](CN(C)S(=O)(=O)c2ccccc2)Oc2c(cccc2N(C)C)C1=O,-0.9%,.,-21%,.,.,-8,.
COc1ccc(OC)c(NC(=S)NCCN2CCOCC2)c1,1.3%,10%,11%,-0.2,12%,-32,-3
CCOC(=O)c1c(C)n(OCc2ccccc2)c2ccc3nonc3c12,223%,-20%,6%,-0.6,11%,-19,14
CCN(C(=O)CSc1nnc(-c2c[nH]c3ccccc23)n1C1CC1)C1CCS(=O)(=O)C1 (stereo not given),0.4%,.,10%,.,-44%,-1,5
O=C(Nc1ccc2c(c1)C(=O)OC2)c1ccc(F)cc1F,0.5%,2%,-6%,2.0,0%[15.4 µM],-17,.
CCCc1cc(=O)n2[nH]c(C(F)(F)F)nc2n1,.,14%,8%,5.2,19%[15.4 µM],10,23
Cc1cc(NC(=O)COC(=O)C2CC(=O)N(c3ccc(Br)cc3)C2)no1 (stereo not given),.,13%,-6%,-4.8,-43%[inhibitor],-4,1
Cc1c(Br)c([N+](=O)[O-])nn1CC(=O)Nc1ccc(C(N)=O)cc1,-0.4%,14%,8%,-1.0,3%,-17,-4
CN(C)C(=O)c1nc2ccc(Cl)cn2c1CN1CCCC(OCc2cccnc2)C1 (stereo not given),-1.7%,21%,6%,-13,-88%[inhibitor],-9,-10
O=C(COC(=O)c1ccccc1Br)Nc1ccc(F)cc1,-0.6%,9%,-12%,1.8,-16%,-6,-17
CCc1cccc(OCC(=O)Nc2c[nH]c(=O)[nH]c2=O)c1,.,5%,2%,0.0,-6%[15.4 µM],-5,-5
C=CCn1c(=O)c(C#N)cc2c(=O)n3ccccc3nc21,24%,11%,-2%,0.8,?,-7,1
CCOC(=O)Cn1c(S(=O)(=O)Cc2ccccc2)nc2ccccc21,-2.2%,18%,4%,2.6,-28%,-10,11
Cc1ccc(NC(=O)COC(=O)c2ccco2)cc1C,-1.1%,.,2%,.,-3%,-11,-1
Cc1ccc(-c2cc(C(=O)N3CCN(c4ncccn4)CC3)c3cc(Br)ccc3n2)o1,.,7.9µM*,?,7.4,-1%[15.4 µM],7,6
O=C(COC(=O)c1ccc2ccccc2c1)Nc1ncc(C(F)(F)F)cc1Cl,?,7%,6%,1.7,2%,0,13
CCOc1ccc(CCNC(=O)C2CC(=O)N(C3CCCC3)C2)cc1OCC (stereo not given),0.7%,7%,8%,3.5,22%,-9,5
CCOc1ccc(C(=O)c2nc3c(n2O)CCCC3)cc1,-4.8%,-14%,-1%,2.8,10%,-10,6
COc1ccc(NC(=O)c2cc(S(=O)(=O)N3CCOCC3)cs2)cc1,.,5%,-3%,-3.3,15%,-3,7
CCOc1ccc(CN2CCC(n3nccc3NC(=O)C3CC3)CC2)cc1CO,-0.7%,8%,6%,0.3,0%,-13,-8
CCC(C)(C(=O)NC1CCCCC1)N(Cc1cccs1)C(=O)c1ccc(=O)[nH]c1 (stereo not given),-21%,-4%,11%,-0.8,11%,-14,3
Cc1c(CCO)c(=O)[nH]n1C(=O)c1ccc(F)cc1,0.5%,0%,-6%,0.0,-24%,5,-8
COCc1ccc(CN2CCc3c([nH]c4ccccc34)C2CC(C)C)o1 (stereo not given),.,-10%,-7%,?,-6%,-4,-5
Cc1ccnc(NC(=O)CCC(=O)N(CC(=O)NCc2ccccc2)Cc2ccco2)c1,.,-1%,9%,-3.5,8%,3,5
N#CC(=C1N=c2ccccc2=N1)c1c(O)[nH]c2ccccc12,.,-7%,.,2.3,.,.,9
CN1CCN(/C=N/c2sc3c(c2C#N)CCCCC3)CC1,1.7%,-1%,?,-2.0,27%,-26,5
O=C(CCCn1c(=O)c2cccn2c2cccnc21)NCCc1ccc(Cl)cc1,-7.5%&4.0%,-2%,17%,.,?,-13,-23
O=C(COc1cccc2ccccc12)NNC(=O)[C@@H]1CCCC[C@@H]1C(=O)O,-4.8%,5%,6%,2.7,3%,10,4
COc1ccc(-n2nnnc2SCC(=O)c2cccc(OC)c2)cc1,1.3%,-10%,12%,2.2,?,0,0
Cc1nc(C)c(C(=O)OCC(=O)Nc2ccccc2)s1,1.2%,.,11%,.,?,4,-9
N#C/C(=C\c1ccco1)C(=O)Nn1cnnc1,.,5%,-14%,-3.7,-10%[15.4 µM],1,3
O=C(c1csc2c1CCCC2)N1CCN(c2ncccn2)CC1,-7.4%,-2%,11%,6.2,0%,8,-3
COCCNc1nc2c(c(=O)n(Cc3cccc(Br)c3)c(=O)n2C)n1C,-0.8%,-1%,-10%,-3.1,-6%,-1,-9
CN(C(=O)c1cccc(NC(=O)Cc2ccc(NC(=O)C3CCCN(C(=O)C4CCC4)C3)cc2)c1)C1CCCC1 (stereo not given),-2.2%,.,8%,.,.,-2,.
COc1nc(OC)nc(N2CCC(C(=O)Nc3cccc4c3CCCC4)CC2)n1,-2.3%,3%,2%,-0.4,?,-9,4
CCN(Cc1nc(-c2ccccc2)no1)C(=O)c1ccc2c(c1)OCO2,.,12%,0%,-1.8,15%,-2,-17
O=C(NC(=S)Nc1c(Cl)ccc2nsnc12)c1ccco1,-13%,?,-11%,.,33%,-14,-22
O=C(CN1C(=O)C2CCCCC2C1=O)Nc1cccc([N+](=O)[O-])c1 (stereo not given),-17%,.,11%,.,-12%[15.4 µM],-19,-5
[2H]C(CCOS(N)(=O)=O)c1ccccc1 (stereo not given),0.4%,3%,8%,-0.8,38%,-9,?
COc1ccc(NC(=O)Cc2nnc(SCC(=O)Nc3ccccc3)n2C)cc1,.,1%,3%,4.1,16%[15.4 µM],-5,3
O=C(O)/C=C/C(=O)Nc1cccc2cccnc12,0.7%,6%,6%,-6.9,-40%[inhibitor],12,16&-24
CC(C)Cn1c(-c2csc3c2CCCC3)n[nH]c1=S,0.1%,?,2%,3.1,-5%,-8,-13
Cc1c(C(=O)c2ccccc2)c2ccccn2c1CCC#N,-2.1%,14%,3%,-2.2,35%,-14,-1
CCN(CC)CCN1C(=O)c2ccccc2NC1c1ccccc1F (stereo not given),?,-8%,3%,1.1,10%,-26,-6
CC(=O)Nc1ccccc1NC(=O)c1cc(C)ccc1C,.,15%,3%,0.6,13%[15.4 µM],-8,-1
CC(C)NC(=O)CCS(=O)(=O)c1ccc(Br)s1,-0.2%,12%,9%,-1.1,8%,-4,-2
CN(CC(=O)Nc1ccccc1Br)C(=O)CN1CCN(c2ccccc2Cl)CC1,-3.2%,.,-1%,.,29%,-30,-1
COc1cccc(C2C(C(=O)c3ccco3)=C(O)C(=O)N2CCN(C)C)c1OC (stereo not given),-12%,7%,-4%,7.2,1%,-14,-9
Cn1c(SCC(=O)N/N=C/c2ccco2)nc2ccccc21,0.8%,11%,0%,18,9%,1,-4
Cc1ccccc1NS(=O)(=O)c1ccc(NC(=O)c2nc3ncccn3n2)cc1,-0.3%,14%,5%,1.1,-47%[inhibitor],11,-2
CCC(NC(=O)c1ccc2nc(Cc3ccc(OC)cc3)oc2c1)c1ccncc1 (stereo not given),0.6%,23%,-18%,-1.2,1%,-7,-13
Cc1n[nH]c(=O)nc1NC(C)c1ccccc1 (stereo not given),-0.4%,12%,6%,0.4,-10%,0,8

# A draw from above in order of formula weight, largest number first.
SMILES,ClpP mod,Sfp PPTase inh,gsp antagonist,Menin MLL FP FL,gsp agonist,D2 PAM,TRPV1 PAM
COc1cccc(C2C(C(=O)c3ccco3)=C(O)C(=O)N2CCN(C)C)c1OC (stereo not given),-12%,7%,-4%,7.2,1%,-14,-9
CC(C)Cn1c(-c2csc3c2CCCC3)n[nH]c1=S,0.1%,?,2%,3.1,-5%,-8,-13
CC(=O)Nc1ccccc1NC(=O)c1cc(C)ccc1C,.,15%,3%,0.6,13%[15.4 µM],-8,-1

# Compounds as they come; about 5.1% have a hit in one of these screens.
